Choline anaer gr: choline-fed anaerobic bacterial growth inhibition | Gram-negative bacterium anaerobic choline minimal medium, absorbance growth; active compounds read low; many inactives read as strong as hits in the columns shown | calls only | hit rate 0.2% among 55,000 | AID 1963822;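 active = growth z-score on choline under -2 at 7 or 20 h with little or no fall on glycerol, limits in tiers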;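 also: stock transfer was 300 nL into about 50 µL; the organism is E. coli; final concentration not given here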
Choline anaer gr early: also measured in Choline anaer gr; calls as there; z-score; measured here: choline growth z-score, timepoint 1;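 score of optical density at 7 h as mean of two plates; lower means less growth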
* marks the source's active call; other numbers are inactive results; & = joins results of further samples.

How did CCOC(=O)CNC(=O)NCc1ccc2c(c1)N(C(=O)c1ccc(C)cc1)CC2 do in these assays?
Choline anaer gr: inactive; Choline anaer gr early: -0.95

How did Cc1ccc(-c2noc(CSc3nc4cc5c(cc4c(=O)n3Cc3ccncc3)OCO5)n2)cc1 do in these assays?
Choline anaer gr: inactive; Choline anaer gr early: 0.38

Results for Cc1ccc(OCc2cc(=O)n3ccsc3n2)cc1 ?
Choline anaer gr: inactive; Choline anaer gr early: 1.1

How did C=CCOC(=O)C1=C(C)Nc2nc(SCC=C)[nH]c(=O)c2C1c1ccc(C(C)C)cc1 (stereo not given) do in these assays?
Choline anaer gr: inactive; Choline anaer gr early: 0.48

What do the screens show for `COc1ccc(NC(=O)Cn2cnc3nc(N4CCCCC4)sc3c2=O)cc1Cl`?
Choline anaer gr: inactive; Choline anaer gr early: -0.19

Results for Cc1ccc2cc(-c3noc(CCC(=O)Nc4ccccc4Cl)n3)c(=O)[nH]c2c1 ?
Choline anaer gr: inactive; Choline anaer gr early: -0.25

Results for C[C@@H]1C[C@H]2[C@@H]3C[C@H](F)C4=CC(=O)C=C[C@]4(C)[C@@]3(Cl)[C@@H](O)C[C@]2(C)[C@H]1C(=O)COC(=O)C(C)(C)C ?
Choline anaer gr: inactive; Choline anaer gr early: 0.52

Results for CCc1nnc(-c2coc(S(=O)(=O)N3CCCC(C)C3)c2)o1 (stereo not given) ?
Choline anaer gr: inactive; Choline anaer gr early: -1.6

What do the screens show for `O=S(=O)(NCc1nc2cccnc2n1C1CCCC1)c1ccccc1`?
Choline anaer gr: inactive; Choline anaer gr early: -0.48

What do the screens show for `COc1cc(OC)c(NC(=O)CN2C(=O)C(C)(C)c3ccccc32)cc1Cl`?
Choline anaer gr: inactive; Choline anaer gr early: -0.62

What do the screens show for `CS(=O)(=O)Nc1ccc(N2CCN(c3ccc(F)cc3)CC2)c(C(=O)O)c1`?
Choline anaer gr: inactive; Choline anaer gr early: 0

What do the screens show for `CCCCC(=O)Nc1cc(N2CCn3c(nc4ccccc43)C2)ccc1C`?
Choline anaer gr: inactive; Choline anaer gr early: 0.09

What do the screens show for `O=C1CC(c2nc3ccccc3n2C/C=C/c2ccccc2)CN1c1ccccc1Cl` (stereo not given)?
Choline anaer gr: inactive; Choline anaer gr early: 0.17

What do the screens show for `Cc1ccc(Nc2cc(N3CCN(C(=O)COc4ccc(Cl)c(C)c4)CC3)ncn2)cc1`?
Choline anaer gr: inactive; Choline anaer gr early: 1.3

Results for Cc1nn(-c2ccc3nncn3n2)c(C)c1CCC(=O)N1CCC(C)CC1 ?
Choline anaer gr: inactive; Choline anaer gr early: -0.27

As a working copy, some entries already given.
What do the screens show for `COc1ccc(NC(=O)Cn2cnc3nc(N4CCCCC4)sc3c2=O)cc1Cl`?
Choline anaer gr: inactive; Choline anaer gr early: -0.19

Results for Cc1ccc2cc(-c3noc(CCC(=O)Nc4ccccc4Cl)n3)c(=O)[nH]c2c1 ?
Choline anaer gr: inactive; Choline anaer gr early: -0.25

Results for C[C@@H]1C[C@H]2[C@@H]3C[C@H](F)C4=CC(=O)C=C[C@]4(C)[C@@]3(Cl)[C@@H](O)C[C@]2(C)[C@H]1C(=O)COC(=O)C(C)(C)C ?
Choline anaer gr: inactive; Choline anaer gr early: 0.52

Results for CCc1nnc(-c2coc(S(=O)(=O)N3CCCC(C)C3)c2)o1 (stereo not given) ?
Choline anaer gr: inactive; Choline anaer gr early: -1.6

What do the screens show for `O=S(=O)(NCc1nc2cccnc2n1C1CCCC1)c1ccccc1`?
Choline anaer gr: inactive; Choline anaer gr early: -0.48

What do the screens show for `COc1cc(OC)c(NC(=O)CN2C(=O)C(C)(C)c3ccccc32)cc1Cl`?
Choline anaer gr: inactive; Choline anaer gr early: -0.62

What do the screens show for `CS(=O)(=O)Nc1ccc(N2CCN(c3ccc(F)cc3)CC2)c(C(=O)O)c1`?
Choline anaer gr: inactive; Choline anaer gr early: 0

What do the screens show for `CCCCC(=O)Nc1cc(N2CCn3c(nc4ccccc43)C2)ccc1C`?
Choline anaer gr: inactive; Choline anaer gr early: 0.09

What do the screens show for `O=C1CC(c2nc3ccccc3n2C/C=C/c2ccccc2)CN1c1ccccc1Cl` (stereo not given)?
Choline anaer gr: inactive; Choline anaer gr early: 0.17

What do the screens show for `Cc1ccc(Nc2cc(N3CCN(C(=O)COc4ccc(Cl)c(C)c4)CC3)ncn2)cc1`?
Choline anaer gr: inactive; Choline anaer gr early: 1.3

Next entries follow:
Results for O=S(=O)(c1cccc(F)c1)N1CCCN(c2nc3cccnc3s2)CC1 ?
Choline anaer gr: inactive; Choline anaer gr early: 0.49

How did O=C(Nc1cccc2nsnc12)c1[nH]nc2c1COc1ccccc1-2 do in these assays?
Choline anaer gr: inactive; Choline anaer gr early: -2

Results for COC(=O)c1cc(C)nc2c1c(C)nn2-c1ccccc1 ?
Choline anaer gr: inactive; Choline anaer gr early: 0.18

What do the screens show for `Cc1nc(-c2cc(S(=O)(=O)Nc3ccc(Cl)cn3)c(C)s2)no1`?
Choline anaer gr: inactive; Choline anaer gr early: 0.05

How did COc1cccc(-n2c(C)c(C)c3c2ncn2nc(C(C(C)C)N4C(=O)c5ccccc5C4=O)nc32)c1 (stereo not given) do in these assays?
Choline anaer gr: inactive; Choline anaer gr early: 0.53

How did Cc1ccc2c(c1)N(S(C)(=O)=O)CC(C)O2 (stereo not given) do in these assays?
Choline anaer gr: inactive; Choline anaer gr early: -0.76

Results for Cn1c(CN(c2ccc(F)cc2)S(C)(=O)=O)nnc1SCC(=O)Nc1ccc(F)c(Cl)c1 ?
Choline anaer gr: inactive; Choline anaer gr early: 0.58

How did CCOC1CCN(C(=O)C2CC2)CC1 do in these assays?
Choline anaer gr: inactive; Choline anaer gr early: 0.75

Results for COCCn1ccc2nc(C)c(C(=O)N3CCN(c4ccccn4)CC3)cc2c1=O ?
Choline anaer gr: inactive; Choline anaer gr early: 0.18

How did COc1cc2c(=O)n(Cc3ccc(C(=O)NCCC(C)C)cc3)c(=O)n(CC(=O)NC(C)C)c2cc1OC do in these assays?
Choline anaer gr: inactive; Choline anaer gr early: 0.83

What do the screens show for `O=S(=O)(c1ccc(Br)cc1)N1CCN(c2ccc(N3CCCC3)nn2)CC1`?
Choline anaer gr: inactive; Choline anaer gr early: 0.94

How did CS(=O)(=O)Nc1ccc(N2CCN(c3cccc(Cl)c3)CC2)c(C(=O)O)c1 do in these assays?
Choline anaer gr: inactive; Choline anaer gr early: -0.18

Results for CCOC(=O)[C@H](CCc1ccccc1)N[C@@H](C)C(=O)N1[C@H](C(=O)O)C[C@@H]2CCC[C@@H]21 ?
Choline anaer gr: inactive; Choline anaer gr early: 0.67&0.61

How did O=C(Nc1cccc(Cl)c1)C1CCCN1S(=O)(=O)c1cccc2nsnc12 (stereo not given) do in these assays?
Choline anaer gr: inactive; Choline anaer gr early: 1.4

How did O=[N+]([O-])c1ccc(-c2nc(-c3ccc(F)cc3)c(-c3ccncc3)[nH]2)cc1 do in these assays?
Choline anaer gr: inactive; Choline anaer gr early: -0.42

What do the screens show for `O=C(c1ccoc1)N1CCC(Cc2nnc(-c3ccccc3)o2)CC1`?
Choline anaer gr: inactive; Choline anaer gr early: 0.53

How did CCc1ccc(CNc2nc(-c3nnc(-c4ccc(C)cc4)o3)nc3ccccc23)cc1 do in these assays?
Choline anaer gr: inactive; Choline anaer gr early: -0.35

How did O=S(=O)(c1ccc(-c2noc(-c3ccc4c(c3)OCO4)n2)cc1)N1CCOCC1 do in these assays?
Choline anaer gr: inactive; Choline anaer gr early: -0.96

Results for c1ccc(CN2CN(CC3CCCO3)c3nc4ccccc4n3C2)cc1 (stereo not given) ?
Choline anaer gr: inactive; Choline anaer gr early: 0.84

Results for CCCc1nnc(C(=O)Nc2ccc(C(=O)NCc3ccccn3)cc2)s1 ?
Choline anaer gr: inactive; Choline anaer gr early: -0.76

Results for N#CCN(c1ccc2c(c1)OCO2)S(=O)(=O)c1ccc2nncn2c1 ?
Choline anaer gr: inactive; Choline anaer gr early: -1

How did O=C1N(Cc2ccc(F)cc2)CCN1C1CCN(S(=O)(=O)c2cc(F)cc(F)c2)CC1 do in these assays?
Choline anaer gr: inactive; Choline anaer gr early: 0.03

Results for CC[N+](CC)(CC)CC(=O)Nc1c(C)cccc1C ?
Choline anaer gr: inactive; Choline anaer gr early: 0.43&-1&0.9&0.38

How did CCN(Cc1ccccc1)c1ncc(NS(=O)(=O)c2ccccc2)cc1C(=O)O do in these assays?
Choline anaer gr: inactive; Choline anaer gr early: -0.01

Results for Cn1c(=O)c(=O)n(C)c2cc(N3CCCCC3)c(NC(=O)C3CC3)cc21 ?
Choline anaer gr: inactive; Choline anaer gr early: -0.3

Results for COc1cc(C2CC(=O)Nc3nc(N)[nH]c(=O)c32)ccc1OCc1ccc(F)cc1 (stereo not given) ?
Choline anaer gr: inactive; Choline anaer gr early: 0.61

What do the screens show for `Cc1ccc(-c2c(C(F)(F)F)[nH]n3c(=O)cc(C)nc23)cc1`?
Choline anaer gr: inactive; Choline anaer gr early: -0.23

What do the screens show for `CC(=O)NCCc1nc2cc(NC(=O)COc3ccc(Cl)cc3)ccc2n1C`?
Choline anaer gr: inactive; Choline anaer gr early: 0.17

How did CC(=O)Nc1nc2ccc(CC(=O)N3CCN(c4ccccn4)CC3)cc2s1 do in these assays?
Choline anaer gr: inactive; Choline anaer gr early: -0.96

How did COc1ccc(NC(=O)C2CCCN(S(=O)(=O)c3ccc4c(c3)CCCC(=O)N4)C2)c(OC)c1 (stereo not given) do in these assays?
Choline anaer gr: inactive; Choline anaer gr early: -0.74

Results for CCOC(=O)c1nc2ccccc2n(C(C)=O)c1=O ?
Choline anaer gr: inactive; Choline anaer gr early: -0.01

How did Cc1ccc2c(=O)cc(C(=O)NCC(c3ccc(C(C)(C)C)cc3)N(C)C)oc2c1C (stereo not given) do in these assays?
Choline anaer gr: inactive; Choline anaer gr early: 1.6

Results for COc1cc(OC)c(NC(=O)N2CCN(c3nc4ccccc4n4cccc34)CC2)cc1Cl ?
Choline anaer gr: inactive; Choline anaer gr early: 1.1

What do the screens show for `O=C(c1ccc(F)cc1)N1CCC(c2nc3ccccc3s2)CC1`?
Choline anaer gr: inactive; Choline anaer gr early: -1.3

Results for CCn1c(=O)c(-c2noc(CCC(=O)Nc3ccc(OC)c(Cl)c3)n2)nn(-c2ccccc2)c1=O ?
Choline anaer gr: inactive; Choline anaer gr early: -2.1

How did C1=C(CCNc2ncnc3c(-c4ccccc4)noc23)CCCC1 do in these assays?
Choline anaer gr: inactive; Choline anaer gr early: 1

What do the screens show for `O=C(CN1C(=O)COc2ccc(C(=O)N3CCN(Cc4ccc5c(c4)OCO5)CC3)cc21)N1CCCC1`?
Choline anaer gr: inactive; Choline anaer gr early: -0.48

How did CN1CCC(=C2c3ccccc3C=Cc3ccccc32)CC1 do in these assays?
Choline anaer gr: inactive; Choline anaer gr early: -0.53&-2.3&0.29

How did CC(C)(C)c1csc(-c2csc(S(=O)(=O)Nc3ccc(Cl)cc3)c2)n1 do in these assays?
Choline anaer gr: inactive; Choline anaer gr early: 0.38

How did CC1(C(=O)NC2CCCCC2)Cn2c(nc3ccccc32)C(=O)N1Cc1cccnc1 (stereo not given) do in these assays?
Choline anaer gr: inactive; Choline anaer gr early: -2.1

What do the screens show for `Cc1ccccc1C(=O)N1CCC(c2nc3ccccc3o2)CC1`?
Choline anaer gr: inactive; Choline anaer gr early: -0.76

What do the screens show for `COc1ccccc1C(Nc1nc(C)cc(C)n1)c1c(NC(=O)c2ccccc2)sc(C)c1C` (stereo not given)?
Choline anaer gr: inactive; Choline anaer gr early: -0.33

How did CC(C)c1nc(-c2ccc(C(=O)N3CCN(c4nc5ncccc5o4)CC3)cc2)no1 do in these assays?
Choline anaer gr: inactive; Choline anaer gr early: 0.11

How did Cc1nc2sccn2c(=O)c1S(=O)(=O)NC1CCCC1 do in these assays?
Choline anaer gr: inactive; Choline anaer gr early: -0.41

How did COc1ccc(Oc2ccc(-c3noc(-c4ccnn4C)n3)cc2)cc1 do in these assays?
Choline anaer gr: inactive; Choline anaer gr early: 1.9

How did O=C(CCN(C(=O)c1ccc(F)c(Cl)c1)C1CC1)N1CCNCC1 do in these assays?
Choline anaer gr: inactive; Choline anaer gr early: -1.6

Results for CC1CC(=O)N(CC(=O)NCC2CCCO2)c2cc(S(=O)(=O)N3CCCCC3)ccc2S1 (stereo not given) ?
Choline anaer gr: inactive; Choline anaer gr early: -0.22

How did Cc1c(-c2nnc(C(=O)NC3CCCCC3)o2)oc2ccccc12 do in these assays?
Choline anaer gr: inactive; Choline anaer gr early: -1.2

Results for CCCCN1CCN(Cc2nc3nc(C)cc(N4CCCCC4)n3n2)CC1 ?
Choline anaer gr: inactive; Choline anaer gr early: 1.2

Results for O=C(CSc1nnc2c(=O)n(-c3ccc(F)cc3)ccn12)c1c[nH]c2ccccc12 ?
Choline anaer gr: inactive; Choline anaer gr early: 1.3

Results for c1ccc(-c2nnn3c2nc(N2CCCCC2)c2ccccc23)cc1 ?
Choline anaer gr: inactive; Choline anaer gr early: -0.92

Results for CCC(Oc1ccc(F)cc1)C(=O)Nc1nonc1-c1ccc(Br)cc1 (stereo not given) ?
Choline anaer gr: inactive; Choline anaer gr early: 0.78

How did CCOC(=O)c1c(NC(=O)C2=Cc3ccccc3OC=C2)sc2c1CCC(CC)C2 (stereo not given) do in these assays?
Choline anaer gr: inactive; Choline anaer gr early: -1.1

How did O=C(NCCc1ccccc1)NCCn1c(-c2ccc(F)cc2)nc2ccccc21 do in these assays?
Choline anaer gr: inactive; Choline anaer gr early: 0.43

Results for COc1ccc(CNS(=O)(=O)c2cc(-c3nc(C(C)C)cs3)sc2C)cc1 ?
Choline anaer gr: inactive; Choline anaer gr early: -1.9

What do the screens show for `CCn1c(=O)oc2cc(NS(=O)(=O)c3c(C)noc3C)ccc21`?
Choline anaer gr: inactive; Choline anaer gr early: 0.2

Results for Cc1nc(Nc2ccc(F)cc2)nc2c1nnn2-c1ccc(F)cc1 ?
Choline anaer gr: inactive; Choline anaer gr early: 1

How did Cc1ccc(N(Cc2nc3nc(C)cc(C)n3n2)C(=O)c2ccc(C(C)(C)C)cc2)cc1 do in these assays?
Choline anaer gr: inactive; Choline anaer gr early: -0.74

This is a subset (hit frequency here may not be typical).
